CSC inhib: cancer stem cell inhibition | cancer stem cell-like cells viability, luminescence | inhibition, % at 7.5 µM | actives 1.1% (n = 300,000);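 active = mean at 75% or more and at least half the replicates too; inconclusive = mean and replicates disagree; tested in HMLE shEcad cells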;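 also: 0% = median of negative and 100% = median of positive control wells; the first replicate is given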
eIF4H FP inh: inhibitors of RNA binding by human eIF4H | Q15056 | eIF4H fluorescence polarization binding assay | inhibition, % at 35 µM | actives 0.94% (n = 290,000);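 active = 50% or more with normal probe brightness, or confirmed in later tests; inconclusive = above 50% with abnormal brightness, or retests that disagree; inactive = below 50% or failed in later tests; about a fifth of its hits are not listed in these tables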;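 also: calls also rest on retests at 20 µM and on dose response follow-up; 0% = protein and probe with vehicle and 100% = probe without protein; strong numbers were not always called active; many hits fall short of the cut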
Rce1 inhib: yeast Ras-converting enzyme inhibition; actives 0.27% (n = 290,000); calls only; Q03530; AID 2563; yeast membranes, quenched prenylated peptide cleavage fluorescence;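 active = fall in fluorescence gain of 50% or more versus controls, with final raw signal at or below 3038400; inconclusive = same 50% fall but final raw signal above 3038400; inactive = fall in fluorescence gain under 50%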;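 also: plate controls were neutral control wells for no effect and wells lacking membranes for full effect; tested at 10 µM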
Target sequence (Q03530 whole entry, looked up): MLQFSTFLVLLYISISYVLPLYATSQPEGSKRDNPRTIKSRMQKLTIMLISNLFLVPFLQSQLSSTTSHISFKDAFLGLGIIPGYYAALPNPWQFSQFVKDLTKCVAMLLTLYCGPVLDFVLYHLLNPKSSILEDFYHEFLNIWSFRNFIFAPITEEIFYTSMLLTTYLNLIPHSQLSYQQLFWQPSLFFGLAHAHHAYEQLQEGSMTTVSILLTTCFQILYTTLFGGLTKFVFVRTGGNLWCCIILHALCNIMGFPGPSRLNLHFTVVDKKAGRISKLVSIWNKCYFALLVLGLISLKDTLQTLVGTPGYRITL
HIV Env fusion: blocks HIV Env-driven cell-cell fusion; HeLa-JRFL Env/CEM21 cell fusion, luciferase; inhibition, % at 12.3 µM; actives 1.1% (n = 360,000);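 active = mean replicate inhibition score of at least 50 and every replicate individually at or above 50; inconclusive = only one of the two criteria met; inactive = mean below 50 and not all replicates reaching 50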;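 also: 0% = plate neutral controls and 100% = maraviroc near 300 nM; one replicate is shown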
Yeast UUG start: alters start codon recognition fidelity in yeast | S. cerevisiae UUG-firefly luciferase reporter, luminescence/redox ratio | actives 0.13% (n = 350,000) | activity score, % at 18.7 µM;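 active = replicate mean at a twofold rise or more, about +100% in these data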;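 also: firefly luciferase made from a UUG start codon reports start codon fidelity; reporter light over untreated wells divided by growth signal over untreated wells; some hits fall short of that in this replicate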
PABP polyA inh: blocks human PABP binding to poly(A) RNA; P11940; fluorescence polarization; inhibition, % at 35 µM; actives 1% (n = 290,000);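 active = 50% or more with normal probe brightness, or confirmed in later tests; inconclusive = above 50% with abnormal brightness, or retests that disagree; inactive = below 50% or failed in later tests; about a fifth of its hits are not listed in these tables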;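 also: calls also rest on retests at 20 µM and on dose response follow-up; controls were probe without protein and protein plus probe with vehicle; some compounds called inactive have numbers as strong as hits; many hits fall short of the cut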
Target sequence (P11940 whole entry, looked up): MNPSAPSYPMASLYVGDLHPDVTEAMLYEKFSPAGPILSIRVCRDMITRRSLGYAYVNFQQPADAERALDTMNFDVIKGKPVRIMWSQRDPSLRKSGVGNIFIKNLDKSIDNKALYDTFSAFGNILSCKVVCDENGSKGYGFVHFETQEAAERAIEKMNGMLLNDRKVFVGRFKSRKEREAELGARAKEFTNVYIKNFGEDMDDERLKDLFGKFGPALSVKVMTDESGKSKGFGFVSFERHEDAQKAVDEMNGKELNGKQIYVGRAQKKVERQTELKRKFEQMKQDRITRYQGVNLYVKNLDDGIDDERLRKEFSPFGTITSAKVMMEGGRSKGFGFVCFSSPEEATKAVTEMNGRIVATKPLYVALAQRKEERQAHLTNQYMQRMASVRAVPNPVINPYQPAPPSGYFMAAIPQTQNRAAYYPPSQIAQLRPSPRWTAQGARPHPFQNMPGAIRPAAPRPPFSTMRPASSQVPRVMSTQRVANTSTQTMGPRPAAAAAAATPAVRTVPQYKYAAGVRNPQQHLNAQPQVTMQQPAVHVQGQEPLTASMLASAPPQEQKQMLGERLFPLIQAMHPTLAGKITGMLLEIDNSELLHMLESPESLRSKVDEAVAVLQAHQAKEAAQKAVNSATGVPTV
MT1-MMP act inh: inhibitors of human MT1-MMP activation; P50281; HT1080 RFP-PRO-GFP cells, GFP/RFP ratio fluorescence, overnight; percent of plate control window, DMSO zero; GFP/RFP ratio change, % at 20 µM; actives 0.061% (n = 360,000); AID 651647;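 active = GFP/RFP ratio change of at least 30% with cell ATP level not reduced by more than half and red fluorescence within 50% of control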; also: strong numbers were not always called active
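system = RFP-PRO-GFP reporter HT1080 cells | dosing = 20 µM single dose, 1% DMSO | timing = overnight cell settling, then overnight compound exposure, 37 °C, 5% CO2 | read-out basis = GFP/RFP fluorescence ratio | controls = DMSO and RFP-L50D-GFP cell wells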
MT1-MMP act inh RFP: second read-out of MT1-MMP act inh, no call of its own (marks repeat the call); RFP signal change, %; measured here: RFP expression control read;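 0 = vehicle wells; hits needed this value within 50% of zero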
Active calls of the source: *; i = inactive; ? = inconclusive; · = not tested or not shown; & = joins results of further samples.

SMILES	CSC inhib	eIF4H FP inh	Rce1 inhib	HIV Env fusion	Yeast UUG start	PABP polyA inh	MT1-MMP act inh	MT1-MMP act inh RFP
COCCCNC(=O)CCc1c(C)nc2c(c(C)nn2-c2ccc(C)cc2)c1C	-1	6	i	8	-5	-2	-1	-2
CC(C)=CCC(C)(C)CNC(=O)NC1CCCCC1	8	7	i	·	·	14	-6	-2
CC(=O)c1cc(-c2ccccc2)n(CC(=O)N2CCN(C3CCCC3)CC2)c1C	-5	30	·	·	-2	29	6	3
CCN(CC)c1ccc(NC(=O)COc2ccc(N(C)S(=O)(=O)c3cccs3)cc2)cc1	19	-5	i	24	-4	2	-2	-3
N#Cc1ccccc1Sc1ccccc1C(=O)OCC(=O)N1CCN(C(=O)c2ccco2)CC1	-7	5	i	·	-11	1	3	2
CC(=O)c1cccc(NC(=O)CN2CCc3cc4c(cc3C2C)OCCCO4)c1 (stereo not drawn)	-13	-6	i	11	1	-2	9	-3
Oc1ccc(C[C@H]2CN([C@@H](Cc3cccc(O)c3)CN3CCC[C@@H]3CN3C(=S)NC[C@@H]3Cc3ccccc3)C(=S)N2CC2CCCCC2)cc1	·	·	·	40	-11	·	-9	-16
Cn1c(CC(=O)Nc2ccccc2F)nnc1SCC(=O)Nc1nccs1	-1	-1	i	16	-18	1	1	3
COc1ccccc1Nc1nc2nonc2[nH]c1=O	13	32	i	1	-12	12	-6	-7
N/C(=N\OC(=O)COc1ccc(Cl)cc1Br)c1cccnc1	3	-2	i	-26	·	1	-1	-1
COc1ccc(C(=O)N/N=C(\N)c2cc3ccccc3oc2=O)cc1	·	-2	i	-7	-8	1	4	5
Cn1ccnc1C(O)c1ccccc1 (stereo not drawn)	9	0	i	-18	-21	3	3	3
CN(CC(=O)Nc1ccc(F)cc1)CC(=O)Nc1ccc(Cl)c(S(=O)(=O)N2CCOCC2)c1	-1	-3	i	25	5	-11	1	-15
CCOC(=O)C1CCCN(C(=O)C(=O)Nc2ccc3nc4n(c(=O)c3c2)CCCCC4)C1 (stereo not drawn)	-6	-6	i	23	10	-4	4	0
COc1cc(C2CC(=O)Oc3c(C(CCN4CCCC(C)C4)c4ccc(N(C)C)cc4)c(OC)cc(OC)c32)cc(OC)c1OC (stereo not drawn)	2	4	i	-7	-5	-6	4	1
O=c1oc2ccc(Br)cc2cc1-c1nc2ccccc2o1	4	-8	i	·	2	6	-145	3
Cc1nc([N+](=O)[O-])cn1CC(=O)Nc1ccc2c(c1)OCO2	-3	-5	i	-6	·	-12	0	8
COCCN1C2=C(COC(C)(C)C2)C(=S)NC1c1ccccc1 (stereo not drawn)	-5	-2	i	-5	·	1	0	1
C/C(=N\N1CCN(c2ccc(Cl)cc2)CC1)c1cccs1	-2	-2	i	0	·	15	0	-1
CCCCOc1ccc(/C=C/C(=O)OCC(=O)NC(=O)NCC(C)C)cc1OCC	-8	-12	i	14	-8	6	-3	-2
O=S(=O)(N[C@H]1C[C@@H](NS(=O)(=O)OCC(Cl)(Cl)Cl)C2CCCCC21)OCC(Cl)(Cl)Cl (stereo partly drawn)	76*	-11	i	53	11	4	5	5
CC1=C(CC/C(C)=N/NC(N)=S)C(C)(C)CCC1	14	2	i	·	-37	-4	-14	-12
Cn1c(/C=N/n2cnnc2)nc2ccccc21	-14	-3	i	·	-6	1	2	-3
O=C1C(=O)N(CCN2CCOCC2)C(c2ccncc2)/C1=C(/O)c1ccc2c(c1)OCO2 (stereo not drawn)	13	-2	i	·	-6	6	-25	-8
CCOC(=O)[C@@H]1CSCCS(=O)(=O)N1Cc1ccccc1Br	·	·	·	7	-11	·	3	4
COc1ccc(NC(=S)NCC2CCCO2)c(C)c1 (stereo not drawn)	-15	4	i	·	·	-3	5	-1
O=C(/C=C/c1ccccc1)NCCSCc1ccccc1	-5	2	i	21	·	3	4	5
Cc1ccccc1OCCOC(=O)c1c(-c2ccccc2)noc1C	54	8	i	25	5	0	-9	-14
CCCN1CCN(c2ccc([N+](=O)[O-])cc2C#N)CC1	-7	3	i	-21	·	-13	2	1
COc1cc(C(=O)NCc2ccncc2)cc(Br)c1OCc1ccccc1	4	-1	i	34	-28	12	-1	-21
COc1ccc(NC(=O)c2cc(-c3ccccc3)oc2C)cc1	-7	-9	i	-13	·	-4	3	5
CN(CC(=O)Nc1cccc(F)c1)C(=O)c1ccc2c(c1)OCCO2	·	·	i	-46	-8	·	3	3
O=C(O)c1cccc(Oc2ccc(C(=O)O)c([N+](=O)[O-])c2)c1	·	·	·	15	-9	·	4	-3
COC(=O)/C=C1/S/C(=N/N=C/c2ccc(N(C)C)cc2)NC1=O	-19	-12	i	·	·	1	·	·
CC(NC(=S)NC(=O)c1ccccc1Br)c1ccccc1 (stereo not drawn)	6	3	i	-14	-21	-5	1	1
Cn1c(Cn2c(=O)sc3ccccc32)nnc1SCC(=O)N1CCOCC1	3	6	i	-9	-5	2	8	6

Next section; the last five above are carried over.
SMILES	CSC inhib	eIF4H FP inh	Rce1 inhib	HIV Env fusion	Yeast UUG start	PABP polyA inh	MT1-MMP act inh	MT1-MMP act inh RFP
CN(CC(=O)Nc1cccc(F)c1)C(=O)c1ccc2c(c1)OCCO2	·	·	i	-46	-8	·	3	3
O=C(O)c1cccc(Oc2ccc(C(=O)O)c([N+](=O)[O-])c2)c1	·	·	·	15	-9	·	4	-3
COC(=O)/C=C1/S/C(=N/N=C/c2ccc(N(C)C)cc2)NC1=O	-19	-12	i	·	·	1	·	·
CC(NC(=S)NC(=O)c1ccccc1Br)c1ccccc1 (stereo not drawn)	6	3	i	-14	-21	-5	1	1
Cn1c(Cn2c(=O)sc3ccccc32)nnc1SCC(=O)N1CCOCC1	3	6	i	-9	-5	2	8	6
O=C(CSc1nc2c(cnn2-c2ccccc2)c(=O)[nH]1)NCC1CCCO1 (stereo not drawn)	·	·	·	3	-4	·	-2	-1
CN1C(=O)N2CN(C3CCCCC3)CN3C(=O)N(C)C1C23 (stereo not drawn)	-14	-8	i	·	2	4	6	9
O=C(Nn1c(-c2ccncc2)nc2ccccc2c1=O)c1ccccc1Br	-4	-6	i	-4	·	1	3	6
CCN(CC)S(=O)(=O)c1ccc(C(=O)Nc2cc(S(=O)(=O)N3CCOCC3)ccc2O)cc1	-8	·	·	·	-11	·	-6	-7
CC(NC1CCN(Cc2ccccc2)CC1)c1ccc(F)cc1 (stereo not drawn)	9	-12	i	7	12	3	7	7
Nc1ncnc2c1C1(CCCCC1)Cc1ccccc1-2	11	-4	i	23	·	2	-5	-9
COc1ccc(S(=O)(=O)N2CCOC2CNC(=O)C(=O)NCC(C)C)cc1OC (stereo not drawn)	-15	-6	i	3	-7	8	-4	1
CCOC(=O)c1ccc(S(=O)(=O)N2CCN(CC(O)COc3cccc(C(C)=O)c3)CC2)cc1 (stereo not drawn)	-5	-8	i	4	3	4	-4	-2
CCOC(=O)c1c(-c2cccs2)csc1NC(=O)CN1CCOCC1	19	4	i	·	-8	-2	-4	-5
C=CCn1c(SCCC(=O)O)nc2c1c(=O)n(C)c(=O)n2C	·	-9	i	·	·	-1	3	3
COc1ccc(NC(=S)N2CCN(C/C=C/c3ccccc3)CC2)c(OC)c1	-8	0	·	-9	·	-20	7	-5
Cc1cccc(C(=O)N[C@H](C(=O)Nc2ccc3c(c2)OCO3)C(C)C)c1	13	·	·	-22	-15	·	1	1
O=C(Nc1cccnc1)c1ccc2snnc2c1	0	2	i	·	-13	9	0	-2
O=C(CCN1CCC(c2ccc(Cl)s2)=N1)c1ccc(Cl)s1	12	6	i	-8	0	11	-29	0
CC(=O)N1CCc2c(sc(NC(=O)CN3C(=O)c4ccccc4C3=O)c2C(N)=O)C1	-5	-4	i	-18	53	-3	-4	3
CCc1cc(-c2n[nH]c(=S)n2-c2ccccc2C)cs1	-4	-8	i	·	-21	2	1	0
O=C(CCNC(=O)c1ccccc1)NCCc1ccc(Cl)cc1	-5	-6	i	1	12	-4	5	5
CC(=O)Nc1sc2c(c1C(c1ccccc1Cl)N1CCN(CCO)CC1)CCCC2 (stereo not drawn)	-22	-6	i	-21	-1	9	3	1
O=C(CCc1ccccc1)Nc1nccs1	-10	-8	i	-63	-4	-2	-1	2
CCCc1cc(=O)n2[nH]c(NC(=O)c3ccco3)nc2n1	-10	1	·	5	-7	-1	6	2
COc1ccc(Cc2nnc(NC(=O)C(C)(C)C)s2)cc1	-8	-8	i	1	·	2	-1	1
COC(=O)c1cccc(NC(=O)CCN2C(=O)NC(C)(C)C2=O)c1	·	·	·	4	-10	·	-1	3
C[C@H](CO)N1C[C@H](C)[C@@H](CN(C)Cc2ccc3c(c2)OCO3)OCc2cnnn2CCCC1=O	·	·	·	-142	-17&8	·	1	1
Cc1ccccc1S(=O)(=O)/N=C(/c1ccccc1)N(C)C	-9	-12	i	0	-24	1	0	4
COc1ccc(N(CC(=O)NCc2cccs2)S(=O)(=O)c2c(C)nn(C)c2C)cc1	-10	7	i	·	-5	4	1	3
O=C(COC(=O)c1c(F)cccc1Cl)NC1CCCC1	-11	-9	·	-7	-12	-6	2	-1
COc1ccc2[nH]cc(CCNS(=O)(=O)Cc3ccccc3)c2c1	12	1	i	11	-12	2	6	4
COc1ccc(CCNC(=O)c2oc3ccc(OC)cc3c2C)cc1	·	0	i	-9	-8	-5	0	0
CCN1CCN(Cc2c(O)ccc3c2O/C(=C\C=C\c2ccccc2OC)C3=O)CC1	2	?	i	-1	25	2	-55	2
COc1cccc(C(=O)Nc2nc3ccc(S(C)(=O)=O)cc3s2)c1	23	6	i	-62	-6	?	6	-4
COc1ccccc1N1CCN(C(c2cccs2)C(C)NC(=O)c2cccs2)CC1 (stereo not drawn)	3	-10	i	2	·	-10	-8	-9
COC(=O)c1ccc(COC(=O)CNS(=O)(=O)c2ccc(C)cc2)cc1	-9	2	i	-5	·	-5	-4	1
O=C(CSc1ccc(Br)cc1)NCC(c1cccs1)N1CCOCC1 (stereo not drawn)	7	·	i	7	9	·	-2	-14
CC(C)C(=O)Nc1cccc(COc2ccccc2CN(Cc2ccccc2)C(=O)OC(C)(C)C)c1	·	·	·	-4	12	·	-10	-13
CCOc1ccc(C(C)=O)cc1COc1ccc(-n2cnnn2)cc1	1	2	·	·	-29	4	2	-1
O=C(O)CCC(=O)N1CCc2cc(S(=O)(=O)NCc3cccs3)ccc21	4	-4	i	-85	-4	-6	1	3
COc1ccc(C)cc1NC(=O)C(Sc1nnc(Nc2ccccc2F)s1)c1ccccc1 (stereo not drawn)	·	0	i	20	·	-10	-9	-13
CCC1(C)NC(=O)N(/N=C/c2cc(OC)c(O)c(OC)c2)C1=O (stereo not drawn)	-3	5	i	9	·	11	7	6
O=C(NC(c1ccccc1)c1ccccc1)c1ccc(Br)o1	9	0	i	23	-6	6	-5	2
Cc1cc(C)cc(NC(=S)NCCc2ccc(S(N)(=O)=O)cc2)c1	4	-3	i	7	·	-11	5	6
CCOc1ccc(CCNC(=O)CN2C(=O)NC3(CCCc4ccccc43)C2=O)cc1OCC (stereo not drawn)	-12	·	i	-3	·	·	-2	-3
CSc1n[nH]c(NCc2ccc(C)cc2)n1	2	-1	i	-5	-19	5	15	4
Cc1ccc(C2CC(c3ccc(F)cc3)Nc3nc(N)nn32)cc1 (stereo not drawn)	-17	-6	i	-8	-23	-23	2	-2
COc1ccc(Cl)cc1NC(=O)CCN1C(=O)C2C3CCC(C3)C2C1=O (stereo not drawn)	3	-9	i	-20	3	2	-2	-1

Bioassay records from PubChem.

Some of the compounds tested, so the mix of outcomes need not match the whole.
